# Screens deposited in PubChem BioAssay by National Center for Advancing Translational Sciences (NCATS).
# CtBP-E1A blk: qHTS Assay for Inhibitors of the CtBP/E1A Interaction; CtBP / adenovirus E1A interaction (AlphaScreen); AlphaScreen GST-E1A/His-CtBP binding, 1536-well; active compounds read low; control for the full effect not named in the record; activity change, % (concentration not given with the values); actives 0.49% (n = 340,000); in the data active means activity change below about -65%; inconclusive means about -30% to -65%; inactive means above about -30%; note: % is set by controls: 0 for no effect and ±100 for the full control effect
#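 In 5 uL wells, 23 nL compound meets equimolar GST-E1A and His-CtBP (5X stock 125 nM each) for 2 h, 37 °C. Beads (5X, 50 ug/mL) then 1 h, 37 °C, dark.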
# PINK1 modulator: A Quantitative High throughput Screen to Identify Chemical Modulators of PINK1 Expression; PINK1 immunofluorescence, high-content cytometry, 24 h; Potency, µM (top dose mostly 76.6 µM), for inactives: at the highest dose activation (PINK1 increase), most hits filed as activators; actives 0.2% (n = 410,000); active = well fitted activation curve with a large enough effect; inconclusive = small, poorly fitted or top-dose-only effect; inactive = flat fitted curve, though single readings scatter; cell line not stated here;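 note: potency is the fitted concentration of half-maximal effect; % of control where 0% means no effect; nearly all actives have a fitted effect of over 65% in size; a mitochondrial uncoupler was the plate control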
#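 Decision-based qHTS: stable cells, 24 h exposure to five compound concentrations, CCCP as control. Fixed cells stained for PINK1 plus nuclear, mitochondrial and cell markers, cytometer read.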
# Sfp PPTase inh: qHTS Assay for Inhibitors of Bacillus subtilis Sfp phosphopantetheinyl transferase (PPTase); Biochemical Sfp PPTase activity, qHTS; Potency, µM, inactives show max response, negative = inhibition, usual class: inhibitors; actives 3.5% (n = 310,000); active = well fitted inhibition curve with a large enough effect; inconclusive = small, poorly fitted or top-dose-only effect, or another doubt; inactive = no such curve, though single readings can be large or run the other way;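 note: the enzyme is Sfp with the accession as filed and its product quenches rhodamine fluorescence; potency is the fitted concentration of half-maximal effect; 0% = enzyme reaction without inhibitor and -100% = no enzyme wells; top concentration of the series not given in the record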
#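 Fluorescence-quenching assay: 15 nM Sfp-PPTase preincubated 15 min at room temperature with compound, then 5 uM rhodamine-CoA and 12.5 uM BHQ-2-labelled YbbR peptide added. Fluorescence (ex 525/em 598 nm) read at start and after 30 min; difference gives rate.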
# TRPV1 PAM: HTS Assay for Compounds that Act as Potentiators of the Vanilloid Receptor 1; AID 540277, 2011; actives 0.02% (n = 320,000); TRPV1-expressing cells, Fluo-8 calcium influx, capsaicin EC20 potentiation; host cell line not named in the record; control for the full effect not named in the record; potentiation, % at 8.33 µM; Transient receptor potential cation channel subfamily V member 1 (Homo sapiens), Q8NER1; active means potentiation above 80%; inconclusive means 30% to 80%; inactive means below 30%; note: 0% is about no effect
#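 TRPV1-expressing cells were cultured overnight at 35.5C and loaded with Fluo-8 calcium dye for 40 to 90 min at room temperature. After a 10 s baseline, compound was added and calcium influx was read kinetically for 3 min (ex 480/em 520 nm).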
# D2 PAM: Beta-Arrestin HTS for Positive Allosteric Modulators of the Human D2 Dopamine Receptor: Potentiators. D(2) dopamine receptor (Homo sapiens), P14416. DiscoveRx D2 beta-arrestin cells, luminescence, 90 min; 100% = 57 uM dopamine signal. potentiation, % (no concentration beside the values). actives 0.23% (n = 360,000). AID 624464, 2012; active = potentiation of 50% or more; inconclusive = 30% to 50%; inactive = 30% or less;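 note: compound concentration not given in the record; tested on top of an EC20 dose of dopamine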
# Target sequence (P14416 whole entry, looked up): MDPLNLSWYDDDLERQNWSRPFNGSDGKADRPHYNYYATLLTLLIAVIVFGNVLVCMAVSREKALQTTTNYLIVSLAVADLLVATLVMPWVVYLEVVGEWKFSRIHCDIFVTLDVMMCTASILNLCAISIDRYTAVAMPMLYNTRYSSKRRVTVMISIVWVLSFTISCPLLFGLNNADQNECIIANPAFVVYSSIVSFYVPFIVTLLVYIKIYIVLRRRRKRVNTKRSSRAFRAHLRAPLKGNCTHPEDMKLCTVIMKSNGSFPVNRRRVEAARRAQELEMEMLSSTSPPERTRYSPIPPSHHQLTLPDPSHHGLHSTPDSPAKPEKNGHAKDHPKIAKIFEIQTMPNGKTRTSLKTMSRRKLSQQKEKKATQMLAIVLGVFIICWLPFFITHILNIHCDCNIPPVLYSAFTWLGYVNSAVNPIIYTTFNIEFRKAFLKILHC
#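 PathHunter beta-arrestin assay in DiscoveRx D2 cells. Compounds were added with an EC20 of dopamine (50 nM final) for 90 min at 37 deg C. Luminescence was read 1 h after detection reagent, with 57 uM dopamine as the EC100 control.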
# Six1-Eya2 inh: qHTS Assay for Inhibitors of the Six1/Eya2 Interaction | Homeobox protein SIX1 (Homo sapiens) + Protein phosphatase EYA2 (Homo sapiens), … | AlphaScreen GST-Six1/His-Eya2 binding, biochemical; active compounds read low; control for the full effect not named in the record | activity change, % (concentration not given with the values) | actives 0.56% (n = 360,000) | AID 651725, 2012; in the data active = activity change below about -65%; inconclusive = about -30% to -65%; inactive = above about -30%; note: % is set by controls: 0 for no effect and ±100 for the full control effect
#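 AlphaScreen luminescence read after one hour at 37 °C in darkness. Pin-transferred compounds met GST-Six1 and His-Eya2 protein (5X stock 250 nM/500 nM) plus glutathione donor and Ni-chelate acceptor beads (5X, 50 ug/mL).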
# D2 agonist: Beta-Arrestin HTS for Positive Allosteric Modulators of the Human D2 Dopamine Receptor: Agonists | AID 624465, 2012 | D(2) dopamine receptor (Homo sapiens), P14416 | DiscoveRx PathHunter D2 beta-arrestin, luminescence, 90 min; 100% = 57 uM dopamine signal | activation, % (no concentration beside the values) | actives 0.084% (n = 360,000); in the data active = activation above about 40%; inconclusive = about 15% to 40%; inactive = below about 15%; note: compound concentration not given in the record; the text of the record calls up to 30% inactive
#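 Agonist mode: compounds alone added to overnight-plated D2 PathHunter cells for 90 min at 37 C, with 57 uM final dopamine (EC100) defining full response. Beta-arrestin recruitment detected by chemiluminescent reagent, read after 1 h at ambient temperature.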
# Numbers without * were called inactive; ? = inconclusive; / = not tested or not shown; & = joins results of further samples; [ ] = another dose, or the depositor's remark.
SMILES,CtBP-E1A blk,PINK1 modulator,Sfp PPTase inh,TRPV1 PAM,D2 PAM,Six1-Eya2 inh,D2 agonist
CCC(=O)c1ccc(OCC(=O)Nc2cccc(S(=O)(=O)N(C)c3ccccc3)c2)cc1,-2,0.8%,/,9,4,-6,7.2
CC(=O)Nc1c(O)nc(SCC(=O)Nc2sc3c(c2C#N)CCCCCC3)[nH]c1=O,-1,-0.9%[38.3 µM],-27%,?,-11,-3,-4.6
COc1ccc(C(=O)NCC(C)NC(=O)c2ccc(OC)c(OC)c2)cc1OC (centres undefined),3,-1.1%,/,/,-1,4,0.8
COc1ccc(CCNC(=O)C/C(C)=N/NC(=O)C2CCCCC2)cc1OC,4,0.1%,0%,6,-2,9,-7.6
O=C(Nc1ccccc1)c1ncoc1-c1ccc(Cl)cc1,/,6.6%,15%,-14,-19,2,-3.2
COc1ccccc1C1CC(=O)Oc2cc(C)cc(C)c21 (centres undefined),-9,1.9%,28%,/,0,3,0.9
O=[N+]([O-])c1cccc2ncccc12,0,0.6%,9%,/,5,0,2.1
Cc1ccc(S(=O)(=O)N2CCC(C(=O)N3CCC[C@H]3C(=O)NCc3ccccc3)CC2)cc1,1,7.3%[38.3 µM],19%,-11,-3,0,-0.1
CS(=O)(=O)N(CC(=O)NCCSC1CCCCC1)c1ccc2c(c1)OCO2,-7,0.2%,-8%,3,-22,2,0.2
O=C(NCN1C(=O)C2C3C=CC(C3)C2C1=O)OC1CCCCC1 (centres undefined),2,-0.8%,-1%,-11,-19,2,0.5
O=c1c2ccccc2nc(COc2ccccc2)n1/N=C/c1ccco1,-2,-1.8%,-16%,-11,-11,1,-2.7
O=C(O)CCc1nc(-c2cccs2)no1,5,-0.2%,5%,18,-4,14,-2.8
O=C(O)CN1C2=NCCCN2c2ccccc21,1,-1.5%,11%,7,-17,2,-0.5
O=C(COC(=O)[C@@H]1CC(O)CN1S(=O)(=O)c1ccc([N+](=O)[O-])cc1)NC12CC3CC(CC(C3)C1)C2 (some centres undefined),/,-1.2%,7%,7,4,-3,12
O=C(Nc1ccc(F)cc1F)C1CCN(S(=O)(=O)c2cccnc2)CC1,1,-0.6%,6%,-1,-8,5,-0.7
C[C@]12C=CC(=O)C=C1CC[C@@H]1[C@@H]2[C@@H](O)C[C@@]2(C)[C@H]1CC[C@]2(O)C(=O)COC(=O)CCC(=O)O,0,1.8%,13%,5,-2,0,-3.8
Cc1nc2ccccn2c(=O)c1NC(=O)c1ccc(Br)o1,25,2.2%,/,/,-3,16,1.9
Cc1occc1C(=O)/C(C#N)=C/c1ccc(O)c(Br)c1,-13,8.5%,8%,1,-15,0,-5.8
CCOCC(=O)Nc1cc(C(=O)OC)ccc1C(=O)OC,-2,-0.6%,0%,-5,-17,-3,-5.4
O=C(NC1CCCCC1)C1COc2ccccc2O1 (centres undefined),0,0.7%,/,-2,-4,13,-7.3
Cc1cccc2nc(CSc3ncccc3C(=O)O)cn12,4,-0.9%,-18%,3,-33,7,1.8
CCOc1ccc(Nc2cc(C)nc3c(C)cccc23)cc1,-23,4.3%,5%,0,-4,7,-4.8
O=C(CN1CCN(c2ccccn2)CC1)NC(=O)NC1CCCCC1,9,0.6%,21%,5,-8,3,0.0
CCOc1ccc(NC(=O)N(c2ccccc2)c2ccccc2)cc1,5,-1.0%,1%,-5,-13,4,1.6
Cc1ccc2nc(C3CCCCC3)c(Cc3ccccc3C(F)(F)F)n2c1,2,?,/,/,-10,-5,-4.1
COc1cccc(CN2CCN(Cc3cc(OC)c(OC)cc3OC)CC2)c1,10,2.5%,56µM*,6,-14,2,3.9
COc1ccc(CC(=O)Nc2ccccc2C(C)=O)cc1S(=O)(=O)N1CCOCC1,-3,2.0%,/,25,-10,-10,-3.0
COc1ccc(NC(=O)C2CCOC2=O)cc1 (centres undefined),2,2.0%,/,/,-3,-9,-5.5
CC(=O)C1=C(C)NC(SCC(=O)c2ccccc2)=C(C#N)C1CC(C)C (centres undefined),-2,-0.5%,20µM*,-10,-16,-6,-0.9
CN(Cc1ccccc1)C(=O)COC(=O)Cc1ccc(Cl)cc1,11,2.8%,/,/,-1,7,-0.3

# An excerpt of these results, with bars between the fields:
SMILES | CtBP-E1A blk | PINK1 modulator | Sfp PPTase inh | TRPV1 PAM | D2 PAM | Six1-Eya2 inh | D2 agonist
COc1ccc(CC(=O)Nc2ccccc2C(C)=O)cc1S(=O)(=O)N1CCOCC1 | -3 | 2.0% | / | 25 | -10 | -10 | -3.0
COc1ccc(NC(=O)C2CCOC2=O)cc1 (centres undefined) | 2 | 2.0% | / | / | -3 | -9 | -5.5
CC(=O)C1=C(C)NC(SCC(=O)c2ccccc2)=C(C#N)C1CC(C)C (centres undefined) | -2 | -0.5% | 20µM* | -10 | -16 | -6 | -0.9
CN(Cc1ccccc1)C(=O)COC(=O)Cc1ccc(Cl)cc1 | 11 | 2.8% | / | / | -1 | 7 | -0.3

# (cont.)
SMILES,CtBP-E1A blk,PINK1 modulator,Sfp PPTase inh,TRPV1 PAM,D2 PAM,Six1-Eya2 inh,D2 agonist
Cc1cccc(C)c1OCC(=O)Nc1ccc(NC(=O)c2ccco2)cc1,5,14%,2%,1,-2,3,-0.8
COC(=O)C1CCN(C(=O)/C=C/c2ccc3c(c2)OCO3)CC1,-3,-0.6%,-1%,-29,-3,-1,8.9
O=C(Oc1ccc2ccc(=O)oc2c1)c1cccs1,-2,1.1%,-8%,-10,-12,?,1.4
CC(=O)N1CCC2(CC1)C(C#N)=C(N)OC1=C2C(=O)CC(C)(C)C1,4,-0.8%,7%,-3,2,4,1.0
O=C(c1ccc2c(=O)n(Cc3ccccc3)c(=S)[nH]c2c1)N1CCCC1,3,14%,23%,7,-5,-2,1.6
Cc1nn(CCO)c(N)c1C1(O)C(=O)Nc2c(Cl)cc(Cl)cc21 (centres undefined),6,15%,10%,6,-4,3,0.8
CCCc1c(C(=O)Nc2cc(C)on2)cnn1-c1ccccc1,8,1.7%,3%,/,-11,0,2.4
COC(=O)c1c(NC(=O)C(=O)N2CCCCC2)sc2c1CC(C)(C)OC2,-4,2.7%,-1%,-15,5,0,-3.7
COc1ccc(NC(=O)Nc2cc3oc4ccccc4c3cc2OC)cc1,13,12%,-20%,18,-15,1,-3.4
Cc1nc2ccccc2nc1OCC(=O)Nc1ccc(F)cc1,-9,0.7%,3%,1,-14,10,-3.3
COc1cc(C2c3c(-c4ccccc4)n[nH]c3C(=O)N2c2ccccc2)ccc1O (centres undefined),-13,5.1%,4%,4,52*,-4,3.0
CCC1CCCCN1C(=O)CSc1nnc(CNC(=O)COc2ccc(Cl)cc2)o1 (centres undefined),1,-2.5%,-2%,?,13,0,-1.3
O=C(COC(=O)c1nc(Cl)ccc1Cl)NCCc1ccccc1,-20,-1.2%,/,4,-20,-11,4.6
CCS(=O)(=O)N1Cc2ccccc2CC1C(=O)NCc1cccc(OC)c1 (centres undefined),5,0.4%,-3%,20,13,-2,0.6
CC1=C(C)/C(=N/OC(=O)c2cccc([N+](=O)[O-])c2)C=CC1=O,-1,-4.6%,18%,3,12,4,?
CC(C)CCC(CC(C)O)c1n[nH]c(=S)n1-c1ccccc1 (centres undefined),2,-1.2%,-23%,-5,-7,3,0.1
CC(=O)c1ccc(NS(=O)(=O)c2ccc3c(c2)N(C)CCO3)cc1,3,-1.1%,1%,-2,-4,0,-7.2
CCCNC(=O)c1c(C)cc(=O)oc1C,0,?,23%,-12,-19,3,-2.1
Cc1ccc(/C=N/Nc2ccc3c(C(F)(F)F)cc(C(F)(F)F)nc3n2)cc1,-21,2.5%,23%,-2,21,1,-2.7
Cc1ccc2c(c1)cc1c(=O)n(CC(=O)N(C)c3ccccc3)nc(C)n12,1,0.5%&0.2%,-3%,8,-11,4,-1.6
O=C(Nc1ccc(OC(F)(F)F)cc1)C1=NCCN1,-8,0.5%,11%,-19,0,5,-1.3
COc1cccc(CNc2nc3ccccc3n2CCN2CCCCC2)c1,-12,4.7%[38.3 µM],0%,-2,-22,-7,-2.3
Cn1nc(C(F)(F)F)c(C(=O)Nc2ccc(F)cc2F)c1Sc1cccc(C(F)(F)F)c1,16,-1.9%,11%,/,-2,17,5.1
CCNC(=O)N1c2ccc(OCC)cc2C(C)=CC1(C)C,-21,-1.1%,?,6,28,-25,8.8
CNCC(O)CN1CCN(c2ccccc2OC)CC1 (centres undefined),17,-2.0%,10%,16,-16,39,0.7
Cn1ncc2nc[nH]c(=O)c21,-2,-1.3%,13%,4,-2,2,-1.9
O=[N+]([O-])c1ccc(N2CCOCC2)cc1NCCCO,4,-0.5%,-4%,7,-6,-9,-4.3
C=C(C)c1cccc(C(C)(C)NC(=O)N(C)C2CCN(C)CC2)c1,/,0.3%,13%,0,-9,12,-0.9
O=c1c(-c2ccccc2)c(O)nc2ccccn12,-15,/,2%,1,-6,-6,-1.2
O=C(COC(=O)CNC(=O)c1ccc(Cl)cc1)Nc1ccc(Cl)cn1,/,2.4%,/,/,-4,5,-2.9
O=C1CC(c2cccs2)CC(O)=C1C=NCCN1CCNCC1 (centres undefined),5,/,9%,1,0,2,-2.3
O=[N+]([O-])c1cc(Cl)ccc1NCCc1ccccn1,?,-0.7%,8%,18,-6,-28,-2.8
CCOC(=O)c1ccc(NC(=S)NN2CCN(C)CC2)cc1,1,-0.4%,-22%,3,-5,10,-5.3
O=C(C1CCCCC1)N1CCC(c2nc3c(nnn3Cc3ccccc3Cl)c(=O)[nH]2)CC1,0,0.1%,/,/,-6,2,-3.6
COc1ccc(S(=O)(=O)N(CC(C)C)C2CCS(=O)(=O)C2)cc1OC (centres undefined),-2,-0.3%,/,0,-3,-1,-7.0
CCC(=O)N=c1sc2c(C)cc(C)cc2n1CC(=O)OC,-12,-1.5%,13%,4,2,7,-1.6
CCCCCC(=O)N1C[C@@H](n2cc(C3CC3)nn2)[C@H](O)C[C@@H]1c1ccc(OC)cc1,6,-0.3%,/,/,-2,10,-11
